# Screening results deposited in PubChem BioAssay by Broad Institute.
# Vaccinia stage = Vaccinia orthopox stage-specific inhibition | activity change (mCherry), % (test concentration not listed) | Vaccinia-infected cells, mCherry/Venus stage reporter fluorescence; active compounds read low; some inactives read as strong as hits | 89,000 tested, 0.01% active;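 active = mCherry past -33% and 40 or more points under the early reporter, replicates agreeing; inconclusive = past -33% without that gap or agreement; tested in A549 cells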;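 note: scaled between vehicle wells and reference inhibitor wells; 23 nL library stock went into each well; one replicate is shown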
# Vaccinia stage Venus = second read-out of Vaccinia stage, no call of its own (marks repeat the call); activity change (Venus), %; measured here: Venus reporter, other viral stage;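 negative = less Venus signal; first of two replicates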
# Active calls of the source: *; ? = inconclusive; nt = no result given. This is a subset (hit frequency here may not be typical).
SMILES	Vaccinia stage	Vaccinia stage Venus
C[C@@H]1CN([C@H](C)CO)C(=O)c2cc(-c3ccc(F)cc3)cnc2O[C@@H]1CN(C)C(=O)C1CCC1	-19.0	-18.9
CN1C[C@@H](O)COC[C@H]2O[C@H](CC(=O)NC3CCCC3)CC[C@@H]21	2.5	0.7
CCC(=O)N(C)C[C@@H]1Oc2ncc(C#Cc3ccc(OC)cc3)cc2C(=O)N([C@@H](C)CO)C[C@H]1C	-0.3	-3.9
N#C[C@H]1[C@@H](c2ccccc2-c2ccccc2F)[C@H](CO)N1C(=O)C1CC1	-6.1	-7.6
CS(=O)(=O)N1C[C@H](O)COC[C@H]2O[C@@H](CC(=O)NCc3ccc(-c4ccccc4)cc3)CC[C@@H]21	-0.7	5.3
N#C[C@H]1[C@@H](c2ccc(C#CC3CCCC3)cc2)[C@H](CO)N1C(=O)c1cccc(F)c1	?	nt
C[C@@H]1CN([C@H](C)CO)C(=O)Cc2cc(NS(C)(=O)=O)ccc2O[C@H]1CN(C)C(=O)Nc1ccc(C(F)(F)F)cc1	21.3	21.0
C[C@H]1CN([C@@H](C)CO)C(=O)c2cc(NS(=O)(=O)c3cn(C)cn3)ccc2O[C@@H]1CN(C)S(=O)(=O)c1cccs1	41.4	28.1
C[C@@H]1CN([C@H](C)CO)C(=O)CCCn2cc(nn2)CO[C@H]1CN(C)Cc1ccccc1	18.8	8.4
Cn1cnc(S(=O)(=O)N2CCCCN3[C@@H](CO)[C@@H](c4ccc(-c5ccc(F)cc5)cc4)[C@@H]3C2)c1	-33.6	-33.9
CCC(=O)N1[C@H](CO)[C@@H](c2ccccc2)C12CN(C(=O)c1ccncc1)C2	1.8	3.5
CO[C@H]1CN(C)C(=O)c2cc(NC(=O)CC(F)(F)F)ccc2OC[C@@H](C)N(C(=O)c2ccccc2F)C[C@@H]1C	7.3	22.5
C[C@@H]1CN([C@@H](C)CO)C(=O)c2cccc(NC(=O)Nc3ccc(F)cc3)c2O[C@@H]1CN(C)S(C)(=O)=O	6.3	2.9
CN(C)C(=O)c1cccc(-c2ccc([C@@H]3[C@H](CO)N4CCCCN(CC5CCOCC5)C[C@@H]34)cc2)c1	5.3	12.0
C[C@@H]1CN([C@@H](C)CO)C(=O)Cc2cc(NC(=O)C3CC3)ccc2O[C@H]1CN(C)S(=O)(=O)c1cn(C)cn1	0.2	-7.3
C[C@H](CO)N1C[C@H](C)[C@H](CN(C)C(=O)C2CC2)Oc2cc(C#Cc3ccccn3)ccc2S1(=O)=O	-9.1	0.0
COc1cccc(S(=O)(=O)N(C)C[C@@H]2Oc3ncc(Br)cc3C(=O)N([C@H](C)CO)C[C@@H]2C)c1	-13.2	-6.7
CCCNC(=O)Nc1ccc2c(c1)C(=O)N(C)[C@H]1CC[C@@H](CC(=O)NCc3ccccc3)O[C@@H]1CO2	-4.5	-7.4
COc1ccc(S(=O)(=O)Nc2ccc3c(c2)C(=O)N([C@@H](C)CO)C[C@H](C)[C@H](CN(C)C(=O)c2ccncc2)OCCCC[C@H](C)O3)cc1	-1.7	-9.3
C[C@@H]1CN([C@H](C)CO)C(=O)Cc2cc(N(C)C)ccc2O[C@@H]1CN(C)C(=O)Nc1cccc2ccccc12	6.0	3.4
C[C@H](CO)N1C[C@H](C)[C@H](CN(C)Cc2ccncc2)Oc2c(NC(=O)NC3CCCCC3)cccc2C1=O	2.2	-1.2
Cc1cccc(S(=O)(=O)N[C@@H]2CC[C@@H](CCNC(=O)Nc3cc(F)ccc3F)O[C@H]2CO)c1	-14.7	-0.9
COc1ccc(NC(=O)Nc2ccc3c(c2)C(=O)N([C@@H](C)CO)C[C@@H](C)[C@@H](CN(C)C(=O)Nc2ccccc2)OCCCC[C@@H](C)O3)cc1	3.6	4.7
COc1ccccc1NC(=O)N1CCCCN2[C@H](CO)[C@@H](c3ccc(-c4cccc(C#N)c4)cc3)[C@@H]2C1	?	nt
CCCC#Cc1ccc2c(c1)O[C@H](CN(C)C(=O)CC)[C@H](C)CN([C@H](C)CO)S2(=O)=O	-5.4	-8.2
CCCC#Cc1ccc([C@@H]2[C@@H](CO)N(C(=O)CN3CCOCC3)[C@H]2C#N)cc1	10.7	5.9
C[C@@H]1CN([C@@H](C)CO)C(=O)c2cc(C#CC3CCCC3)cnc2O[C@@H]1CN(C)C(=O)C1CC1	-5.2	7.8
O=C(c1ccccn1)N1CC2(C1)[C@H](c1ccccc1)[C@H](CO)N2C(=O)CC1CC1	-7.5	0.0
CO[C@H]1O[C@H](CO)[C@@H](OC(=O)Nc2cccc(F)c2)[C@H](OC(=O)Nc2ccc3c(c2)OCO3)[C@@H]1OC(=O)Nc1ccc2c(c1)OCO2	-33.3	-34.9
COc1ccccc1-c1cn(CC[C@H]2CC[C@@H](NC(=O)CCN3CCCCC3)[C@@H](CO)O2)nn1	8.3	9.1

# Full records, looked up by structure. Values in the order: Vaccinia stage	Vaccinia stage Venus
# Profile of C[C@H](CO)N1C[C@H](C)[C@H](CN(C)Cc2ccncc2)Oc2c(NC(=O)NC3CCCCC3)cccc2C1=O : 2.2	-1.2
# Profile of CS(=O)(=O)N1C[C@H](O)COC[C@H]2O[C@@H](CC(=O)NCc3ccc(-c4ccccc4)cc3)CC[C@@H]21 : -0.7	5.3

# A draw from above in order of heavy-atom count, ascending.
SMILES	Vaccinia stage	Vaccinia stage Venus
CN1C[C@@H](O)COC[C@H]2O[C@H](CC(=O)NC3CCCC3)CC[C@@H]21	2.5	0.7
CCCC#Cc1ccc([C@@H]2[C@@H](CO)N(C(=O)CN3CCOCC3)[C@H]2C#N)cc1	10.7	5.9
O=C(c1ccccn1)N1CC2(C1)[C@H](c1ccccc1)[C@H](CO)N2C(=O)CC1CC1	-7.5	0.0
N#C[C@H]1[C@@H](c2ccc(C#CC3CCCC3)cc2)[C@H](CO)N1C(=O)c1cccc(F)c1	?	nt
CCCC#Cc1ccc2c(c1)O[C@H](CN(C)C(=O)CC)[C@H](C)CN([C@H](C)CO)S2(=O)=O	-5.4	-8.2
C[C@@H]1CN([C@@H](C)CO)C(=O)c2cc(C#CC3CCCC3)cnc2O[C@@H]1CN(C)C(=O)C1CC1	-5.2	7.8
CS(=O)(=O)N1C[C@H](O)COC[C@H]2O[C@@H](CC(=O)NCc3ccc(-c4ccccc4)cc3)CC[C@@H]21	-0.7	5.3
C[C@H](CO)N1C[C@H](C)[C@H](CN(C)C(=O)C2CC2)Oc2cc(C#Cc3ccccn3)ccc2S1(=O)=O	-9.1	0.0
C[C@@H]1CN([C@@H](C)CO)C(=O)c2cccc(NC(=O)Nc3ccc(F)cc3)c2O[C@@H]1CN(C)S(C)(=O)=O	6.3	2.9
C[C@@H]1CN([C@@H](C)CO)C(=O)Cc2cc(NC(=O)C3CC3)ccc2O[C@H]1CN(C)S(=O)(=O)c1cn(C)cn1	0.2	-7.3
C[C@@H]1CN([C@H](C)CO)C(=O)Cc2cc(N(C)C)ccc2O[C@@H]1CN(C)C(=O)Nc1cccc2ccccc12	6.0	3.4
C[C@H]1CN([C@@H](C)CO)C(=O)c2cc(NS(=O)(=O)c3cn(C)cn3)ccc2O[C@@H]1CN(C)S(=O)(=O)c1cccs1	41.4	28.1
CO[C@H]1O[C@H](CO)[C@@H](OC(=O)Nc2cccc(F)c2)[C@H](OC(=O)Nc2ccc3c(c2)OCO3)[C@@H]1OC(=O)Nc1ccc2c(c1)OCO2	-33.3	-34.9
COc1ccc(S(=O)(=O)Nc2ccc3c(c2)C(=O)N([C@@H](C)CO)C[C@H](C)[C@H](CN(C)C(=O)c2ccncc2)OCCCC[C@H](C)O3)cc1	-1.7	-9.3
COc1ccc(NC(=O)Nc2ccc3c(c2)C(=O)N([C@@H](C)CO)C[C@@H](C)[C@@H](CN(C)C(=O)Nc2ccccc2)OCCCC[C@@H](C)O3)cc1	3.6	4.7

# Additional entries.
SMILES	Vaccinia stage	Vaccinia stage Venus
C[C@@H]1CN([C@@H](C)CO)C(=O)c2cccc(N(C)C)c2O[C@@H]1CN(C)Cc1ccc(Oc2ccccc2)cc1	-15.8	-8.1
C[C@@H]1CCCCO[C@H](CN(C)C(=O)c2ccccc2)[C@@H](C)CN([C@@H](C)CO)C(=O)c2cc(N(C)C)ccc2O1	18.0	8.3
COCC(=O)Nc1ccc2c(c1)[C@@H]1C[C@@H](CC(=O)NCCN3CCCCC3)O[C@@H](CO)[C@@H]1O2	14.8	12.2
O=C(C[C@H]1C[C@H]2c3cc(NC(=O)NC4CCCCC4)ccc3O[C@H]2[C@H](CO)O1)NCc1ccccc1	4.2	4.3
COCC(=O)N(C)C[C@H]1[C@H](c2ccccc2)[C@@H](CO)N1C(=O)Cc1ccncc1	13.1	12.6
COc1ccc(NC(=O)Nc2ccc3c(c2)[C@H]2C[C@H](CC(=O)NCCc4ccccc4)O[C@@H](CO)[C@H]2O3)cc1	13.0	16.6
N#Cc1cccc(-c2ccc3c(c2)[C@H]2[C@H](CCN2S(=O)(=O)c2ccc(F)cc2)[C@H](CO)N3)c1	-33.1	-24.9
CN1c2ccc(C3=CCCCC3)cc2[C@H]2[C@H](CCN2S(=O)(=O)c2ccccc2)[C@@H]1CO	-32.8	-26.7
COc1ccccc1-c1ccc([C@H]2[C@@H](CO)N(C(=O)C3CCOCC3)[C@H]2C#N)cc1	-13.0	-2.7
Cc1noc(C)c1NC(=O)Nc1ccc2c(c1)C(=O)N(C)[C@@H]1CC[C@@H](CC(=O)N(C)C)O[C@@H]1CO2	4.1	1.9
CO[C@H]1CN(C)C(=O)c2cc(NC(=O)c3cc(C)on3)ccc2OC[C@H](C)N(C(=O)C2CC2)C[C@@H]1C	-5.1	-0.9
Cn1cnc(CCNC(=O)C[C@H]2CC[C@@H]3[C@H](COC[C@H](O)CN3C(=O)C3CC3)O2)c1	2.9	6.5
CO[C@@H]1CN(C)C(=O)c2ccc(NC(=O)C3CC3)cc2OC[C@H](C)N(Cc2nccs2)C[C@@H]1C	-8.4	-2.4
C[C@@H]1CN([C@@H](C)CO)C(=O)c2cccc(NC(=O)NC3CCCCC3)c2O[C@@H]1CN(C)Cc1ccc(C(=O)O)cc1	19.2	13.2
COc1ccc(S(=O)(=O)N2C[C@@H](O)COC[C@@H]3O[C@@H](CC(=O)NCCN4CCCCC4)CC[C@H]32)cc1	-7.3	-2.0
C/C=C/c1ccc([C@H]2[C@@H](CO)N(C(=O)CC)[C@@H]2CN(C)C(=O)NC(C)C)cc1	1.7	6.8
COc1ccc(S(=O)(=O)N(C)C[C@@H]2Oc3ccc(NC(=O)CCCCCC(=O)Nc4ccccc4N)cc3CC(=O)N([C@@H](C)CO)C[C@@H]2C)cc1	13.2	-0.3
C[C@@H]1CN([C@H](C)CO)C(=O)c2cc(NC(=O)CCN3CCOCC3)ccc2O[C@H]1CN(C)Cc1ccccc1	-7.0	-0.1
C[C@H](CO)N1C[C@H](C)[C@@H](CN(C)C(=O)Nc2ccc(C(F)(F)F)cc2)Oc2ccc(NC(=O)CCN3CCOCC3)cc2C1=O	7.4	-1.1
C[C@H](CO)N1C[C@H](C)[C@H](CN(C)S(=O)(=O)c2ccc(F)cc2)Oc2ccc(NC(=O)CCN3CCOCC3)cc2CC1=O	6.2	4.3
CC(C)CC#Cc1cnc2c(c1)C(=O)N([C@@H](C)CO)C[C@@H](C)[C@H](CN(C)C(=O)CN1CCOCC1)O2	13.5	9.6
C[C@@H]1CN([C@@H](C)CO)C(=O)c2cc(-c3ccccc3F)cnc2O[C@H]1CN(C)C	-8.0	3.1
COc1ccc(NC(=O)Nc2ccc3c(c2)C(=O)N([C@@H](C)CO)C[C@H](C)[C@H](CN(C)Cc2ccccc2)OCCCC[C@@H](C)O3)cc1	?	nt
CCCC#Cc1ccc2c(c1)[C@@H]1[C@@H](CCN1S(=O)(=O)c1ccc(C)cc1)[C@@H](CO)N2C	5.7	2.4
C[C@H]1CN([C@@H](C)CO)C(=O)Cc2cc(NC(=O)C3CC3)ccc2O[C@@H]1CN(C)C(=O)Nc1ccc(C(F)(F)F)cc1	8.3	6.4
C[C@@H]1CN([C@@H](C)CO)C(=O)c2cc(NC(=O)Nc3ccc4c(c3)OCO4)ccc2O[C@H]1CN(C)C(=O)Nc1ccc(C(F)(F)F)cc1	6.0	8.6
COc1ccc(NC(=O)Nc2ccc3c(c2)C(=O)N([C@H](C)CO)C[C@@H](C)[C@H](CN(C)Cc2ccc(C(F)(F)F)cc2)O3)cc1	?	nt
O=C(C[C@H]1C[C@@H]2c3cc(NC(=O)NC4CCCC4)ccc3O[C@@H]2[C@@H](CO)O1)NCCc1ccccc1	3.1	8.2
COc1ccccc1S(=O)(=O)N(C)C[C@H]1OCc2ccccc2-c2ccccc2C(=O)N([C@H](C)CO)C[C@@H]1C	-16.7	-14.9
Cc1ccc(S(=O)(=O)Nc2ccc3c(c2)C(=O)N([C@@H](C)CO)C[C@@H](C)[C@@H](CN(C)C(=O)NC2CCCCC2)OCCCC[C@H](C)O3)cc1	-17.0	-11.8
